# GIV-Gai inh: GIV-Galpha-i interaction inhibition | 210,000 tested, 0.42% active | P08753 | Galpha-i3/FITC-GIV peptide fluorescence polarization, 90 min; stronger effect = lower value; scaled: aluminum fluoride 0%, vehicle 100% | AID 1224905 | percent of control (FP), % (test concentration not listed);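 active = replicate mean at 85% of control or lower, very high polarization wells dropped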;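 also: wells of about 15 µL received 100 nL stock; the first replicate is given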
# Target sequence (P08753 whole entry, looked up): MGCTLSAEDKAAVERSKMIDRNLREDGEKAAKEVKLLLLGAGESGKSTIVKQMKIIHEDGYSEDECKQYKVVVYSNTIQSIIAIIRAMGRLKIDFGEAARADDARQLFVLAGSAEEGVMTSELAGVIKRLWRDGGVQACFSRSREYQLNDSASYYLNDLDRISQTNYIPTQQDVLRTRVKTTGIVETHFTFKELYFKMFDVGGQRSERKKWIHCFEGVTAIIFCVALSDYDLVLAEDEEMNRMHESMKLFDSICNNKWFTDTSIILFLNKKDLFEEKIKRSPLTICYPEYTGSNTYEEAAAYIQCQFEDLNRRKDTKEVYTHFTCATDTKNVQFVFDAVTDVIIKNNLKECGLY
# * marks the source's active call; other numbers are inactive results. Only part of the results is shown (hit frequency here may not be typical).
SMILES,GIV-Gai inh
COc1ccc(N2C(=O)C3C(c4cccc(Br)c4)OC4(C(=O)c5ccccc5C4=O)C3C2=O)cc1 (stereo not given),111.6
O=C(CCCn1c(SCc2cc(=O)n3cc(Cl)ccc3n2)nc2ccccc2c1=O)NCc1ccccc1Cl,108.5
O=C(Nc1c2c(nn1-c1ccc(F)cc1)CS(=O)(=O)C2)c1ccc(S(=O)(=O)N2CCCC2)cc1,110.1
CCc1nc2sc(C(C)C)nn2c1S(=O)(=O)N1CCCC1,99.8
Cc1ccc(Cl)cc1NC(=O)/C(=C/c1ccc([N+](=O)[O-])cc1)NC(=O)c1ccc(C(C)(C)C)cc1,106.9
Cc1c(CCNC(=O)c2cccc(Br)c2)sc2nc(-c3ccc(F)cc3)nn12,102.2
O=C(NCCC1=CCCCC1)c1cccc(-c2cc(N3CCCC3)ncn2)c1,109.7
COc1cc(C(c2c(C)[nH]n(-c3ccccc3)c2=O)c2c(C)[nH]n(-c3ccccc3)c2=O)ccc1OCc1ccccc1Cl,111.7
Cc1ccc(NC(=O)COc2ccc(-c3cnc4ccccc4n3)cc2)cc1,108.8
CCc1ccc(/C=c2/sc3n(c2=O)C(N)=C(C#N)C(c2ccc(CC)cc2)C=3C#N)cc1 (stereo not given),109.3
CC(C)CN1CCN(C(=O)C2CCN(c3cncnc3N3CCOCC3)CC2)CC1,101.2
CN1CCN(C(=O)c2ccc3c(c2)[nH]c(=S)n2c4ccccc4nc32)CC1,108.6
Cc1ccccc1-n1c(SCC(=O)Nc2ccc(Br)cc2)nc2n[nH]c(C)c2c1=N,102.5
N#CC1(C#N)[C@H](c2ccc(F)cc2F)[C@@H](C(=O)c2ccccc2)N2c3ccccc3C=C[C@@H]21,120.5
Cc1nn(-c2ccc3nnc(C)n3n2)c2c1C(c1cccc(OCc3ccccc3)c1)CC(=O)N2 (stereo not given),130.1
Cn1nnc2cc(-c3noc(C4CC(=O)N(C5CCCC5)C4)n3)ccc21 (stereo not given),101.3
CCn1ccc2c(cc(C(=O)Nc3ccc(OC)c(OC)c3)n2C)c1=O,104.3
N#CC1=C(N)S[C@@H](C(=O)c2ccccc2)[C@@H]1c1ccccc1,98.2
COc1ccc(-c2nn(CN3CCC(C)CC3)c(=S)n2-c2ccccc2)cc1OC,104.4
O=C(Nc1ccc(O)cc1C(=O)O)c1cccc(N2C(=O)c3cccc4c([N+](=O)[O-])ccc(c34)C2=O)c1,107.9
COc1cc(Br)cc2c1OC1(C=C2)c2ccccc2-c2ccccc2N1C (stereo not given),105.1
CCOC(=O)C1=C(O)/C(=C/c2ccc(O)c(OCC)c2)SC1=Nc1ccc(OC)cc1,120.8
CCN1C(=O)c2ccccc2Sc2cc(-c3noc(-c4cnccn4)n3)ccc21,99.5
CCOC(=O)C1CCN(C(=O)c2cc3nc(-c4ccc(OC)cc4)cc(C(F)(F)F)n3n2)CC1,108.4
CCCCCCN1C(=O)C(=O)/C(=C(\O)c2ccccc2)C1c1ccc(C(C)C)cc1 (stereo not given),109.4

# (cont.)
SMILES,GIV-Gai inh
Cc1cc(C)c(S(=O)(=O)NCC(=O)NCc2cscn2)c(C)c1,105.4
COc1ccc(CCn2c(-c3ccc(-c4ccccc4)cc3)csc2=Nc2ccccc2)cc1,106.3
O=C1CSC2(C(=O)N(CN3CCN(c4ccc([N+](=O)[O-])cc4)CC3)c3ccccc32)N1c1cccc(Cl)c1 (stereo not given),99.5
O=C(Nc1ccc2c(c1)OCCO2)N1CCC(NS(=O)(=O)c2ccc(Cl)cc2)CC1,100.4
Cn1c(CN2CCN(S(=O)(=O)c3ccc(F)cc3)CC2)nc2cc(C(=O)N3CCCC3)ccc21,103.4
O=C(NCc1ccco1)C1CCN(c2cncnc2N2CCCC2)CC1,100.1
CCCCC(=O)N1c2ccc(C)cc2C2=C(SC(C(=O)OC)=C(C(=O)OC)C23SC(C(=O)OC)=C(C(=O)OC)S3)C1(C)C,105.3
CSc1ccc(-n2nc(C)c(C)c2C)nn1,97.1
COc1ccc(-c2[nH]nc3c2C2(C(C#N)=C(N)O3)c3ccccc3-c3ccccc32)cc1,113.3
COc1ccc(F)cc1S(=O)(=O)NCC1(C)CCOCC1,101.4
CN1CC(=O)N(CC(=O)Nc2nccs2)c2ccccc2C1=O,103.2
CCCc1cc(C2CCCN2Cc2cccc(F)c2)no1 (stereo not given),106.0
Cc1ccc(-c2noc3ncnc(NC(C)C)c23)cc1,100.7
CCOC(=O)c1ccccc1NC(=O)c1sc2nc(C)nc(N3CCCCC3)c2c1C,101.1
CCCCn1c(=O)[nH]c2c(C(=O)N3CCC(C(=O)OCC)CC3)snc2c1=O,111.0
CC(=O)N1CCCc2cc(S(=O)(=O)N3CCC(C(=O)N4CCN(C5CCCCC5)CC4)CC3)ccc21,98.3
COc1cc(/C=C/c2nc3cc(Cl)ccc3c(=O)n2-c2ccc(C(=O)O)cc2)cc(OC)c1OC,101.3
O=C(CSc1nc2c(c(=O)n1-c1ccc(Br)cc1)SCC2)N1CCc2ccccc21,105.8
CCCOC1CCN(C(=O)NC)CC1,100.7
CC(=O)C1=C(C)NC(SCC(=O)c2ccc([N+](=O)[O-])cc2)=C(C#N)C1c1cccs1 (stereo not given),109.1
COc1ccc(OC)c(NC(=O)N2CCC3(CC2)Nc2cc(OC)ccc2-n2cccc23)c1,106.1
CN1CCN(C23CCCCC2=Cc2cc([N+](=O)[O-])ccc2O3)CC1 (stereo not given),103.1
CNC(=O)N(C)Cc1cccs1,97.8
O=[N+]([O-])c1cc(C(F)(F)F)ccc1N1CCN(S(=O)(=O)c2cccc3nonc23)CC1,111.2
Cn1c(=O)oc2cc(-c3noc(-c4cccnc4Cl)n3)ccc21,99.4

# Some values from above.
# CNC(=O)N(C)Cc1cccs1 | GIV-Gai inh = 97.8
# Cn1c(CN2CCN(S(=O)(=O)c3ccc(F)cc3)CC2)nc2cc(C(=O)N3CCCC3)ccc21 | GIV-Gai inh = 103.4

# Shown with tabs: part of the list above.
structure	GIV-Gai inh
CCCOC1CCN(C(=O)NC)CC1	100.7
CC(=O)C1=C(C)NC(SCC(=O)c2ccc([N+](=O)[O-])cc2)=C(C#N)C1c1cccs1 (stereo not given)	109.1
COc1ccc(OC)c(NC(=O)N2CCC3(CC2)Nc2cc(OC)ccc2-n2cccc23)c1	106.1
CN1CCN(C23CCCCC2=Cc2cc([N+](=O)[O-])ccc2O3)CC1 (stereo not given)	103.1
CNC(=O)N(C)Cc1cccs1	97.8

# Remaining list, next part
SMILES,GIV-Gai inh
N#Cc1cc2c(nc1SCC(=O)NCCc1ccccc1)CCCC2,105.6
COc1ccc(NC(=O)c2ccc(-n3nc(N4CCCC4)ccc3=O)cc2)cc1OC,103.6
CCCCOc1ccc(C2C(N3C(=O)c4ccccc4C3=O)C(=O)N2c2cc(C)cc(C)c2)cc1 (stereo not given),107.9
Cn1c(=O)n(CCC(=O)N2CCCC2)c(=O)c2cc(S(=O)(=O)NC3CCCC3)ccc21,107.4
Cc1cc2nc(CSc3nnc(-c4cc(C)n(C)n4)o3)cc(=O)n2o1,106.1
CC(C)Oc1cccc(NC(=O)C2CCCN(S(=O)(=O)Cc3ccccc3)C2)c1 (stereo not given),101.6
Cc1nc(-c2ccc3c(c2)n(CC(=O)NCc2ccc4c(c2)OCO4)c(=O)n3C(C)C)no1,98.2
Cc1ccc(Cl)cc1N1C(=O)C(N2C(=O)c3cccc([N+](=O)[O-])c3C2=O)C1c1cccs1 (stereo not given),103.4
N#CC1=C([S-])N[C@@](O)(c2ccccc2)[C@H]([n+]2ccc3ccccc3c2)[C@H]1c1ccc(Cl)c(Cl)c1,103.4
N#CC1=C(N)Oc2n[nH]c(-c3ccccc3)c2C1c1ccc(F)c(Br)c1 (stereo not given),115.9
FC(F)(F)c1cccc(C2N(Cc3ccc(Cl)cc3)CCN2Cc2ccc(Cl)cc2)c1,122.2
Fc1ccc(-c2noc(CCc3nnc4ccc(N5CCN(C6CCCCC6)CC5)nn34)n2)cc1,102.6
CCOc1ccccc1NC(=O)CSc1nc2n[nH]c(C)c2c(=N)n1-c1ccc(Br)cc1,97.0
CCCCCCCCCCC(=O)OC1CCC2(C)C(=CCC3C2CCC2(C)C(C(C)CCCC(C)C)CCC32)C1 (stereo not given),106.1
CN(C)C(=O)c1ccc2c(c1)nc(CN1CCN(S(=O)(=O)c3cc(F)ccc3F)CC1)n2C,108.1
CCOC(=O)c1ccc(N2N=C(C)/C(=C\c3ccc(OCc4ccccc4)c(OC)c3)C2=O)cc1,100.9
O=C1C(=O)N(c2nccs2)C(c2ccccc2Cl)/C1=C(/O)c1ccc(F)cc1 (stereo not given),118.7
CC(C(=O)NCCCN1CCN(C)CC1)C1CCN(S(=O)(=O)c2cccs2)CC1 (stereo not given),104.8
CC1(C)CC(=O)C2=C(C1)OC1=C(C(=O)CC(C)(C)C1)C2c1cn(Cc2ccc(Cl)c(Cl)c2)nc1-c1ccccc1,106.3
CC(=O)Nc1cnc(N2CCN(c3cc(Cl)ccc3C)CC2)c(C(=O)O)c1,115.0
Cn1c(=O)n(Cc2cccnc2)c(=O)c2cnc(-c3ccc(Cl)cc3)nc21,100.0
Clc1ccc(-c2nc(-c3ccc4nncn4c3)no2)cc1,103.2
COc1ccc(N2CCN(C(=O)CSc3nc4ccccc4[nH]3)CC2)cc1,118.8
CCN(CC)c1nc(C)nc2sc(C(=O)NCc3ccc(F)cc3)c(C)c12,106.5
O=C(Nc1ccc2c(c1)CCC2)c1sc2ncccc2c1-n1cccc1,107.9

# Other records:
SMILES,GIV-Gai inh
CCOc1ccccc1N(C)C(=O)c1cc(S(=O)(=O)NC2CCCCCC2)ccc1F,101.8
CC(C)(C)C(=O)N1CCCN(S(C)(=O)=O)CC1,100.6
CCOC(=O)C1=C(O)/C(=C/c2ccc(Cl)cc2)SC1=Nc1ccc([N+](=O)[O-])cc1,108.3
Cc1ccc(-n2nc(C(=O)N3CCN(c4ncccn4)CC3)c3ncn(C)c(=O)c32)cc1,105.0
CCCCOc1ccccc1C1CC(=O)Nc2c1c(C)nn2-c1ccc2nnc(C)n2n1 (stereo not given),98.6
O=C(NC1CCCC1)c1ccc2c(c1)nc1n2CCCC1,106.0
CN(C)c1nc2ncn3c(=O)n(CC(=O)Nc4ccc(Cl)cc4)nc3c2s1,106.6
COc1cc(C2C3=C(CCCC3=O)N(c3ccccc3Cl)C(=N)/C2=C(/O)c2ccc(C)cc2)cc(OC)c1OC (stereo not given),108.7
C=CCNC(=S)N1CCN(C2c3cccc4cccc(c34)C2NS(=O)(=O)c2ccc(Cl)cc2)CC1 (stereo not given),111.4
Cc1ccc(S(=O)(=O)N2CCCC2c2nc(-c3ccc(F)cc3)no2)cc1Cl (stereo not given),106.1
CC1CCN(S(=O)(=O)c2cccn(CC(=O)OC(C)(C)C)c2=O)CC1,102.3
Cc1ccc(CNC(=O)N2CCC[C@@H]2C(=O)NCc2csc(-c3ccccc3)n2)cc1,103.5
CCOC(=O)c1ccc(N2C(=O)c3ccccc3NC2c2ccc(OCC)cc2)cc1 (stereo not given),105.3
Cc1ccccc1-c1ncccc1C(=O)N1CCC(C(=O)N2CCC(Cc3ccccc3)CC2)CC1,106.9
Cc1ccn2c(=O)cc(COc3ccc(NC(=O)Nc4cccc(Cl)c4)cc3)nc2c1,108.3
COc1cc(C2OCC3(CO)C(C)C=C(C)C2C3C)ccc1O (stereo not given),103.8
CCO/N=C(\C(=N/OCC)c1ccccc1)c1ccccc1,106.1
Cc1ccc(C)c(-n2ncc3c(N4CC(C)OC(C)C4)ncnc32)c1 (stereo not given),96.5
CCc1nc(-c2csc(S(=O)(=O)N3CCC(C(=O)N4CCOCC4)CC3)c2)no1,106.0
Cc1nn(-c2ccccc2)c(N2CCC(C(=O)NCc3cccnc3)CC2)c1-n1c(C)ccc1C,106.6
COc1cc(OC)cc(C(=O)N(C)CCc2noc(C(=O)NCc3ccccc3)n2)c1,97.7
COC(=O)c1sccc1NC(=O)Cn1c(C)cc(C)c(-c2nc(-c3ccccc3)no2)c1=O,160.7
CC1CCC(Br)(C(C)C)C(=O)/C1=C/c1ccc(Br)cc1 (stereo not given),111.9
Cc1ccc(NC(=O)CSc2nc3[nH]ncc3c(=O)n2-c2ccc(Br)cc2)cc1Cl,111.7
CC(=O)Nc1c(C)nn(-c2ccccc2)c1N1CCC(C(=O)Nc2ccc(Cl)cc2)CC1,108.6

# New compounds follow
SMILES,GIV-Gai inh
Cc1cc(C)c(NC(=O)C2CC2(c2ccccc2)c2ccccc2)c(C)c1 (stereo not given),107.4
CN(C)CCSc1nnc2c(n1)[nH]c1ccccc12,102.9
CCSCCOC(=O)C1=C(C)NC2=C(C(=O)CC(C)(C)C2)C1c1cc2c(cc1Br)OCO2 (stereo not given),100.5
CCOC(=O)c1c(NC(=O)CSc2nnc(CNC(=O)c3ccccc3C(F)(F)F)n2C)sc2c1CCCC2,111.0
O=C(NNc1ccc(F)cc1)C(O)(c1ccccc1)c1ccccc1,119.7
Cc1nc(-c2cc(S(=O)(=O)Nc3ccc(Cl)cc3F)c(C)s2)sc1C,96.5
Cc1nc(N2CCOCC2)nc(Nc2ccc(F)cc2F)c1[N+](=O)[O-],102.1
O=C(NCc1ccco1)/C(=C/c1cccc([N+](=O)[O-])c1)NC(=O)c1ccco1,123.6
O=C(NCC1CC1)C1CCN(c2ncnc3c2oc2ccccc23)CC1,109.0
Oc1ccc(Nc2nc(Nc3ccc(O)cc3)nc(N3CCOCC3)n2)cc1,107.9
Cc1ccc(-c2nc3ccc(C)cn3c2NC(=O)c2ccc(Cl)cc2)cc1,102.8
CCOC(=O)c1sc2nc(SCC(=O)Nc3ccc(N(C)C)cc3)n(CC3CCCO3)c(=O)c2c1C (stereo not given),106.4
COc1cc(C2CC(=O)Nc3c2ccc2ccccc32)ccc1OC(=O)c1cccs1 (stereo not given),112.8
Cc1ccc(-n2nc3c(c2NC(=O)c2cc(Br)ccc2Cl)CS(=O)(=O)C3)c(C)c1,107.7
Cc1ccc(S(=O)(=O)N(CC(O)Cn2c3ccccc3c3ccccc32)c2ccc(Br)cc2)cc1 (stereo not given),114.9

# A draw from above in order of SMILES length, high to low.
SMILES,GIV-Gai inh
CCOC(=O)c1sc2nc(SCC(=O)Nc3ccc(N(C)C)cc3)n(CC3CCCO3)c(=O)c2c1C (stereo not given),106.4
O=C(NCc1ccco1)/C(=C/c1cccc([N+](=O)[O-])c1)NC(=O)c1ccco1,123.6
O=C(NCC1CC1)C1CCN(c2ncnc3c2oc2ccccc23)CC1,109.0

# Source: PubChem (ICCB-Longwood Screening Facility, Harvard Medical School)
